Compound activity as filed in PubChem.
Mtb growth: Mycobacterium tuberculosis H37Rv growth inhibition, putative kinase inhibitor library, confirmatory dose response (AID 2842). M. tuberculosis H37Rv growth inhibition; higher % means a stronger effect; some inactives read as strong as hits. inhibition, % at 10 µg/mL, or IC90 in µg/mL where a hit was titrated. 24,000 compounds, 5.2% hits;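 active = confirmed in a dose series; about a fifth of its hits are not listed in these tables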;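 note: bacteria incubated one week before Alamar blue readout; 0% = bacteria only wells and 100% = bacteria with high antibiotic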
* hit, by the source's call. Not all compounds are listed, so the mix of outcomes need not match the whole.

`CCOC(=O)c1nn(-c2ccc(F)cc2)c(=O)c2c(NC(=O)CCC3CCCCC3)scc12` gave Mtb growth 6.8%.
Screening COc1cc(C(=O)Nc2ccc(S(N)(=O)=O)cc2)cc(OC)c1OC returned Mtb growth -13.7%.
`Cn1c(Cn2c(=O)sc3ccccc32)nnc1SCC(=O)Nc1nccs1` gave Mtb growth -7.5%.
COc1ccc(OC)c(NS(=O)(=O)c2c[nH]c(=O)[nH]c2=O)c1 was read as Mtb growth -12.9%.
Cc1noc(C)c1CSc1ncnc2sc3c(c12)CCCC3 was read as Mtb growth 1.8%.
For Cn1ncc2c(NCCO)nc(N3CCOCC3)nc21 the results were Mtb growth -5.0%.
O=C1/C(=C\c2ccncc2)SC(=S)N1Nc1ccc([N+](=O)[O-])cc1[N+](=O)[O-] was read as Mtb growth -11.5%.
Screening CCCCSc1nc2c(c(=O)[nH]1)C(c1cccs1)C1=C(CCCC1=O)N2 (stereo unspecified) returned Mtb growth 6.2%.
O=C(Cn1cnc2c(cnn2-c2ccccc2)c1=O)Nc1cccc(C(F)(F)F)c1 was read as Mtb growth -2.3%.
`Cc1nnc(SCc2cccc3ccccc23)n(N)c1=O` gave Mtb growth -1.0%.
`CCCC(=O)Nc1scc2c(C(=O)OCC)nn(-c3ccc(OC)cc3)c(=O)c12` gave Mtb growth 4.7%.
CN(C)S(=O)(=O)c1ccc(C(=O)NCc2nnc(SCC(=O)NC3CCCCC3)o2)cc1 was read as Mtb growth -1.1%.
COc1cccc2c(=O)n(CC(=O)NCc3ccc4c(c3)OCO4)ccc12 was read as Mtb growth 4.2%.
Screening CCc1ccc(-c2nnc3c4cc(OC)c(OC)cc4n(Cc4cccc(F)c4)cc2-3)cc1 returned Mtb growth 81.3%.
COc1cc(OC)cc(C(=O)Nc2nnc(-c3ccc(Br)cc3)s2)c1 was read as Mtb growth 2.1%.
For CCOC(=O)CSc1nnc(CNC(=O)c2ccc([N+](=O)[O-])cc2)n1-c1ccccc1OC the results were Mtb growth -17.4%.
For CC(C)c1nnc(NC(=O)c2cccs2)s1 the results were Mtb growth 11.1%.
`Cc1cccc(C(=O)Nc2nnc(-c3ccccn3)o2)c1` gave Mtb growth 19.3µg/mL*.
For O=C(Nc1nnc(-c2cc(Cl)ccc2Cl)o1)c1ccco1 the results were Mtb growth 27.5µg/mL*.
O=C(Cn1cc(C(=O)c2ccccc2)c(=O)c2cc3c(cc21)OCCO3)Nc1ccc2c(c1)OCO2 was read as Mtb growth -17.7%.
`COc1ccc2cc(CCNC(=O)c3ccc(C(C)(C)C)cc3)c(=O)[nH]c2c1` gave Mtb growth -6.5%.
For Cc1ccc2cc(CCNC(=O)c3ccccc3Br)c(=O)[nH]c2c1 the results were Mtb growth 14.2%.
For COc1cccc(S(=O)(=O)Nc2ccc(C(=O)N3CCCCC3C)cc2)c1 (stereo unspecified) the results were Mtb growth -14.5%.
CC1CCc2c(sc(NC(=O)c3ccc(S(=O)(=O)N4CC(C)CC(C)C4)cc3)c2-c2nc3ccccc3s2)C1 (stereo unspecified) was read as Mtb growth -9.8%.
Screening CC1C(=O)N2CCCc3cc(S(=O)(=O)Nc4ccc(Cl)c(Cl)c4)cc1c32 (stereo unspecified) returned Mtb growth 3.5%.
For CCOC(=O)c1nn(-c2ccc(Cl)cc2)c(=O)c2c(NC(=O)C(C)C)scc12 the results were Mtb growth 11.5%.
For COc1cccc(C(=O)Nc2c(C(=O)Nc3ccccc3)oc3ccccc23)c1OC the results were Mtb growth 2.1%.
`NC(=O)c1c(NC(=O)c2ccccc2Br)sc2c1CCCCC2` gave Mtb growth 67.9%.
Cn1c(=O)[nH]c(=O)c2c1nc(Sc1nc3ccccc3s1)n2CCCc1ccccc1 was read as Mtb growth 2.4%.
`COc1ccc(-c2cc(C(=O)N/N=C/c3ccc(O)c(OC)c3)[nH]n2)cc1` gave Mtb growth 53.5%.
`CCOc1cc(/C=C2\SC(=S)N(NC(=O)c3ccc(F)cc3)C2=O)ccc1O` gave Mtb growth -7.4%.
`COc1ccc(OC)c2[nH]c(=O)c(CCNC(=O)c3ccc(S(=O)(=O)N(C)C)cc3)cc12` gave Mtb growth 12.7%.
For Cc1cccc(N2C(=O)N(c3ccc(Cl)cc3)C3CS(=O)(=O)CC32)c1 (stereo unspecified) the results were Mtb growth -0.6%.
COc1cccc(NC(=O)CSc2ccc3nnc(-c4cccc(F)c4)n3n2)c1 was read as Mtb growth -3.5%.
`NC(=O)c1cc2ccc(OC(=O)/C=C/c3ccccc3)cc2oc1=O` gave Mtb growth 64.9%.
`CN(C(=O)CSc1nc(-c2ccccc2Cl)nc2c1c(=O)n(C)c(=O)n2C)c1ccccc1` gave Mtb growth 13.5%.
For O=C(c1ccccc1)N1N=C(c2ccc(O)cc2)CC1c1ccco1 (stereo unspecified) the results were Mtb growth 12.6%.
`CCOc1ccc(-n2c(SCC(=O)Nc3cc(OC)ccc3OC)nc3c([nH]c4ccccc43)c2=O)cc1` gave Mtb growth 5.4%.
COCCNc1nc(Nc2ccc(C)c(C)c2)c2nccnc2n1 was read as Mtb growth 5.7%.
COC(=O)Cn1c(=O)c2c(nc3n(-c4cccc(C)c4C)c(C)c(C)n23)n(C)c1=O was read as Mtb growth -8.1%.
For Cc1cc2c(cc1C)NC(CC(=O)Nc1ccc(SC(F)F)cc1)C(=O)N2 (stereo unspecified) the results were Mtb growth 18.8%.
CCc1ccccc1NC(=O)COC(=O)c1ccc2c(c1)C(=O)N(c1ccccc1Cl)C2=O was read as Mtb growth 18.2%.
`CCOc1ccc(OC(=O)c2ccc(C(=O)Oc3ccc(OCC)cc3)nc2)cc1` gave Mtb growth -2.2%.
Screening Cc1ccc(Nc2nc(NCCN3CCOCC3)nc3nccnc23)cc1Cl returned Mtb growth -5.5%.
`NC(=O)c1nc(-c2ccccc2Cl)nc2c1[nH]c(=O)n2-c1ccc2c(c1)OCO2` gave Mtb growth -11.5%.
O=C1CN(C(=O)c2cccc3ccccc23)C(c2ccc(F)cc2)c2cc(Br)ccc2N1 (stereo unspecified) was read as Mtb growth 10.2µg/mL*.
Cc1ccccc1NC(=O)CSc1nc(N)c(NC(=O)c2ccc(Cl)cc2)c(=O)[nH]1 was read as Mtb growth 0.1%.
`COc1ccc(OC)c2[nH]c(=O)c(CCNC(=O)c3ccccc3[N+](=O)[O-])cc12` gave Mtb growth 1.0%.
`CCc1nc2sc(C(c3ccc(C(F)(F)F)cc3)N3CCN(CCO)CC3)c(O)n2n1` (stereo unspecified) gave Mtb growth 0.4%.
Screening Clc1ccc(-c2ccc3nnc(SCc4cccnc4)n3n2)cc1 returned Mtb growth 3.6%.
COc1ccc2cc(CCNC(=O)Cc3ccc(F)cc3)c(=O)[nH]c2c1 was read as Mtb growth 11.0%.
Screening CCOC(=O)c1c(NC(=O)CC2Sc3ccccc3NC2=O)sc2c1CCCC2 (stereo unspecified) returned Mtb growth -4.0%.
For CC(=O)N1CCc2c(sc(NC(=O)c3cc(-c4cccs4)nc4ccccc34)c2C#N)C1 the results were Mtb growth 3.9%.
`Cn1c(=O)c2c(nc(NCCc3ccccc3)n2Cc2ccc(Cl)cc2)n(C)c1=O` gave Mtb growth 1.7%.
Screening COc1ccc2sc(Nc3cccc(C)c3C)nc2c1 returned Mtb growth 22.3%.
Screening CCOC(=O)c1nn(-c2ccc(OC)cc2)c(=O)c2c(NC(=O)/C=C/c3cc(OC)c(OC)c(OC)c3)scc12 returned Mtb growth -5.5%.
`CCN1C(=O)C(C)(C)COc2ccc(NC(=O)CCc3ccc(OC)cc3)cc21` gave Mtb growth 0.7%.
`Cc1cc(C)c2sc(N3CCN(c4nc5ccccc5s4)CC3)nc2c1` gave Mtb growth -6.8%.
For CCOC(=O)c1nn(-c2ccc(F)cc2)c(=O)cc1NCc1cccnc1 the results were Mtb growth 6.5%.
`Cc1cc(OC(=O)CCc2ccccc2)c([N+](=O)[O-])c(=O)[nH]1` gave Mtb growth -6.8%.
For Cc1ccc(-n2ncc3c(NCC(C)O)ncnc32)cc1Cl (stereo unspecified) the results were Mtb growth 53.3%.
`CC1CCCN(Cc2c(O)ccc3c(=O)c(-c4ccc(Cl)cc4)coc23)C1` (stereo unspecified) gave Mtb growth -2.0%.
`CCOC(=O)CSc1nc(N)c2c3c(sc2n1)CCC3` gave Mtb growth 3.9%.
Screening CC1C(=O)N2CCCc3cc(S(=O)(=O)Nc4ccc(Br)cc4)cc1c32 (stereo unspecified) returned Mtb growth 11.3%.
Screening COc1ccc(-n2c(=O)[nH]c3c(C(N)=O)nc(-c4cccc(F)c4)nc32)cc1OC returned Mtb growth -13.5%.
Screening COc1cc(/C=C/C(=O)Oc2coc(CSc3ncccn3)cc2=O)cc(OC)c1OC returned Mtb growth -1.5%.
CCOc1ccc(/C=N/Nc2nncc(=O)[nH]2)cc1OC was read as Mtb growth 5.4%.
For COc1ccc(NC(=O)c2csc3c2CCCC3)cc1 the results were Mtb growth 9.1%.
For CC(=O)c1ccc(N=c2oc3ccccc3cc2C(N)=O)cc1 the results were Mtb growth -6.9%.
Screening CCOC(=O)c1nn(-c2ccc(F)cc2)c(=O)c2c(NC(=O)c3ccc(OC(C)C)cc3)scc12 returned Mtb growth -6.1%.
For Cc1nnc(SCC(=O)Nc2ccc(F)c(Cl)c2)n(N)c1=O the results were Mtb growth -12.8%.
For CCOC(=O)c1nn(-c2ccc(Cl)cc2)c(=O)c2c(NC(=O)CCl)scc12 the results were Mtb growth 0.7%.
`CCCNC(=O)C(=O)c1c[nH]c2ccccc12` gave Mtb growth 3.8%.
For Cc1[nH]c2ccccc2c1C(Nc1ccccn1)c1ccc(C(C)C)cc1 (stereo unspecified) the results were Mtb growth -6.0%.
Cc1cc(C)c2nc(NC(=O)c3cccc(C(F)(F)F)c3)sc2c1 was read as Mtb growth 11.2%.
Screening COc1cc(NS(=O)(=O)c2ccc(NC(=O)c3ccc(Cl)cc3Cl)cc2)ncn1 returned Mtb growth -11.3%.
`Cc1cccc(-c2nnc(NC(=O)CSc3nncn3C)s2)c1` gave Mtb growth -4.4%.
`CCCc1cc(=O)[nH]c2nnc(SCc3ccc(Cl)cc3Cl)n12` gave Mtb growth 0.4%.
`CC1(C)CC(=O)c2sc(NC(=O)C3CC3)nc2C1` gave Mtb growth 8.2%.
For O=C(Nc1c(C(=O)Nc2cccc(Cl)c2)oc2ccccc12)c1ccco1 the results were Mtb growth 14.5%.

Of the compounds above, three contain a CF3 group.
O=C(Cn1cnc2c(cnn2-c2ccccc2)c1=O)Nc1cccc(C(F)(F)F)c1 was read as Mtb growth -2.3%.
`CCc1nc2sc(C(c3ccc(C(F)(F)F)cc3)N3CCN(CCO)CC3)c(O)n2n1` (stereo unspecified) gave Mtb growth 0.4%.
Cc1cc(C)c2nc(NC(=O)c3cccc(C(F)(F)F)c3)sc2c1 was read as Mtb growth 11.2%.

Reprinted at random: two records from the list
`COc1ccc(OC)c2[nH]c(=O)c(CCNC(=O)c3ccccc3[N+](=O)[O-])cc12` gave Mtb growth 1.0%.
`CCc1nc2sc(C(c3ccc(C(F)(F)F)cc3)N3CCN(CCO)CC3)c(O)n2n1` (stereo unspecified) gave Mtb growth 0.4%.

Going on with the list.
Screening O=C(CSc1nc2c([nH]c3ccccc32)c(=O)n1-c1ccc(F)cc1)N1CCOCC1 returned Mtb growth 1.1%.
Screening CCOc1ccc(C2CC(=O)NC(SCc3ccccc3)=C2C#N)cc1 (stereo unspecified) returned Mtb growth 9.7%.
`O=C(Nc1nc2ccccc2s1)c1ccccc1Oc1ccccc1` gave Mtb growth 2.1%.
`CCOC(=O)c1nn(-c2cccc(Cl)c2)c(=O)c2c(NC(=O)c3ccc(S(=O)(=O)N4CCCCC4)cc3)scc12` gave Mtb growth -7.6%.
For CC1CCCN(c2nc3c(-c4cccc(F)c4)nnn3c3ccc(Cl)cc23)C1 (stereo unspecified) the results were Mtb growth -4.8%.
Cc1ccc(-c2csc(NC(=O)c3cc(=O)c4ccccc4o3)n2)cc1C was read as Mtb growth -16.9%.
`COC(=O)/C=c1/s/c(=C(/C#N)C(=O)NCCc2ccccc2)n(-c2ccccc2)c1=O` gave Mtb growth -2.8%.
For Cc1ccc(-c2nnc3ccc(SC(C)C(=O)O)nn23)cc1 (stereo unspecified) the results were Mtb growth -21.7%.
Screening Cc1cccc(CSc2nnc3ccc(-c4ccccn4)nn23)c1 returned Mtb growth 8.8%.
Cc1ccc(NC(=O)CSc2nnc(Cn3c(=O)sc4ccccc43)n2C)cc1 was read as Mtb growth -0.7%.
Screening COc1ccc(-n2nnc3c(=O)n(CC(=O)Nc4cc(C)on4)cnc32)cc1 returned Mtb growth -4.7%.
For CCCCCn1c(SCC(=O)OCc2ccccc2)nc2c1c(=O)[nH]c(=O)n2C the results were Mtb growth 1.5%.
Screening Cc1cc(C)cc(NC(=O)CSc2cn(Cc3ccc(Br)cc3)c3ccccc23)c1 returned Mtb growth -1.9%.
`COc1ccc(Nc2nc(N3CCN(C)CC3)nc3nccnc23)cc1` gave Mtb growth 0.6%.
Screening O=C(CSc1ncnc2nc[nH]c12)N1CCN(Cc2ccc3c(c2)OCO3)CC1 returned Mtb growth -3.2%.
For CC(C)=CCSc1nc2sc3c(c2c(=O)[nH]1)CCCC3 the results were Mtb growth -2.7%.
Screening COc1ccc(C(=O)Nc2c(C(=O)Nc3ccc([N+](=O)[O-])cc3)oc3ccccc23)cc1OC returned Mtb growth 1.7%.
Screening NC(=O)c1oc2ccccc2c1NC(=O)c1ccccc1Cl returned Mtb growth 20.4%.

Four entries from above, ordered by molar mass, smallest number first.
O=C1/C(=C\c2ccncc2)SC(=S)N1Nc1ccc([N+](=O)[O-])cc1[N+](=O)[O-] was read as Mtb growth -11.5%.
`Cn1c(=O)c2c(nc(NCCc3ccccc3)n2Cc2ccc(Cl)cc2)n(C)c1=O` gave Mtb growth 1.7%.
Screening O=C(CSc1nc2c([nH]c3ccccc32)c(=O)n1-c1ccc(F)cc1)N1CCOCC1 returned Mtb growth 1.1%.
For CC(=O)N1CCc2c(sc(NC(=O)c3cc(-c4cccs4)nc4ccccc34)c2C#N)C1 the results were Mtb growth 3.9%.
